Cruzain inh noDet – blocks cruzain activity in detergent-free assay. P25779. purified cruzain, Z-FR-AMC fluorescence, no detergent. Potency, µM, for inactives: max response, negative = inhibition, actives largely listed as inhibitors. 200,000 compounds, 2.3% hits;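 note: plate controls were enzyme without inhibitor for no effect and buffer without enzyme for full effect; nearly all actives have a fitted effect of over 40% in size; top concentration of the series not given in the record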
Target sequence (P25779 123-467 limits assumed): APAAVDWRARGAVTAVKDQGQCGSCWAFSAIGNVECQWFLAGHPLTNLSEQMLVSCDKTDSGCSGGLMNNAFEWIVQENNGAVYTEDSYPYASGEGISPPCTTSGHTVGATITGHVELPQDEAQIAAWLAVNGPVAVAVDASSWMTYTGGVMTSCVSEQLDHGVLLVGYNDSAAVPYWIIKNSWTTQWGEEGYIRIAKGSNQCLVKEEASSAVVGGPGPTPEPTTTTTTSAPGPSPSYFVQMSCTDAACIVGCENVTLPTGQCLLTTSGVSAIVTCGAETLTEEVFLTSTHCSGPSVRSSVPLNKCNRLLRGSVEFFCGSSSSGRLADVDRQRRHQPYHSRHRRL
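Purified cruzain at 1.5 nM, pre-incubated 15 min with compound at room temperature in 100 mM sodium acetate pH 5.5, 5 mM DTT, 0.00005% Triton X-100. Reaction started with 2 uM Z-FR-AMC; AMC fluorescence increase over 60 s gives rate.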
2A StopGo – FMDV 2A StopGo reporter, luciferase signal | human cells with a luciferase reporter of 2A StopGo recoding; control for the full effect not named in the record | Potency, µM (series often up to 57.9 µM), without a hit: at the highest dose signal change, negative = less light | 410,000 compounds, 1.2% hits; active = well fitted falling curve with a large enough effect; inconclusive = small, poorly fitted or top-dose-only effect; inactive = no such curve, though single readings can be large or run the other way; tested in HEK293T cells; note: % is set by controls: 0 for no effect and ±100 for the full control effect; nearly all actives have a fitted effect of over 45% in size; luciferase light after 4 h
Marburg entry inh – inhibitors of Marburg virus binding or cell entry; Marburg virus pseudotyped entry inhibition, cell reporter; control for the full effect not named in the record; about a third of the inactives were read at about 46 µM; Potency, µM (series often up to 37.8 µM), inactives show at the top dose activity change, negative = inhibition, most hits filed as inhibitors; 300,000 compounds, 1.8% hits; AID 540276; active = well fitted inhibition curve with a large enough effect; inconclusive = small, poorly fitted or top-dose-only effect, or effect the other way; inactive = flat fitted curve, though single readings scatter; tested in HEK293 cells; about a fifth of its hits are not listed in these tables; note: % is set by controls: 0 for no effect and ±100 for the full control effect; luciferase read-out
RE007 growth inh – less growth of the S. pombe RE007 Vpr strain; S. pombe RE007 Vpr strain, BacTiter-Glo ATP luminescence, 24 h; control for the full effect not named in the record; Potency, µM (titrated, usually from 92.2 µM), for inactives: at the top dose activity change, negative = less growth; 360,000 compounds, 0.21% hits; AID 651644; active = well fitted falling curve with a large enough effect; inconclusive = small, poorly fitted or top-dose-only effect; inactive = no such curve, though single readings can be large or run the other way;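 note: % is set by controls: 0 for no effect and ±100 for the full control effect; nearly all actives have a fitted effect of over 50% in size; the assay follows cell death caused by Vpr and the record does not say whether a fall means rescue or toxicity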
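Fission yeast RE007 carrying one integrated HIV-1 vpr copy, seeded at OD 0.01 in PMG+AL medium with 23 nL pinned compound. Grown 24 h at 30 degrees; viability read by BacTiter-Glo luminescence after 5 min.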
NS1 function inh – influenza NS1 inhibition; S. cerevisiae slowed by influenza A NS1, growth recovery by OD600; AID 2326; Potency, µM (highest dose often 46.1 µM), for the others: at the top dose activity, positive = more growth; 270,000 compounds, 0.4% hits; active means well fitted rising curve with a large enough effect; inconclusive means small, poorly fitted or top-dose-only effect; inactive means no such curve, though single readings can be large or run the other way; note: nearly all actives have a fitted effect of over 50% in size
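A cell-based growth assay was used: compounds that relieve NS1-induced slow growth of budding yeast raise OD600. Assay medium was yeast nitrogen base with ammonium sulphate and -URA supplement, pH 6.0, with 2% galactose.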
LASV entry inh – inhibitors of Lassa virus binding or cell entry; Lassa virus pseudotype entry inhibition, cell reporter; control for the full effect not named in the record; 300,000 compounds, 1.2% hits; Potency, µM (highest dose often 37.9 µM), for inactives: top-dose activity change, negative = inhibition, hits mostly inhibitors; active means well fitted inhibition curve with a large enough effect; inconclusive means small, poorly fitted or top-dose-only effect, or effect the other way; inactive means flat fitted curve, though single readings scatter; tested in HEK293 cells; note: % is set by controls: 0 for no effect and ±100 for the full control effect; nearly all actives have a fitted effect of over 50% in size; luciferase read-out
SARS PLP yeast – inhibitors of SARS-CoV papain-like protease in yeast; Potency, µM (top dose mostly 32.9 µM), for the others: at the top dose activity, positive = growth rescue; AID 485353; 330,000 compounds, 0.19% hits; S. cerevisiae expressing SARS-CoV PLpro, growth rescue; control for the full effect not named in the record; active means well fitted rising curve with a large enough effect; inconclusive means small, poorly fitted or top-dose-only effect; inactive means no such curve, though single readings can be large or run the other way; note: 0% is about no effect; nearly all actives have a fitted effect of over 55% in size; growth read by luminescence after 48 h
Cruzain Triton – inhibitors of Trypanosoma cruzi cruzain with detergent. P25779. purified cruzain, Z-FR-AMC fluorescence, 0.01% Triton. Potency, µM, for the others: max response, negative = inhibition, hits mostly inhibitors. 200,000 compounds, 0.43% hits. AID 1478;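 note: plate controls were neutral wells for no effect and buffer without enzyme for full effect; nearly all actives have a fitted effect of over 40% in size; top concentration of the series not given in the record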
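Steps: dispense cruzain (1.5 nM final) in acetate buffer pH 5.5 with DTT and 0.01% Triton X-100; pin-transfer compounds; incubate 15 min RT; add Z-FR-AMC (2 uM final); read fluorescence every 30 s, using the 60 s intensity change.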
* = called active by the depositor; ? = inconclusive; . = no result given; & = joins results of further samples; [ ] = remark or other dose. Unless noted, calls come from the whole dose curve; as a rule, active = well fitted curve in the direction sought with a large enough effect; inconclusive = small, poorly fitted or top-dose-only effect, or another doubt; inactive = no such curve, though single readings can be large; an effect the other way counts as inactive or inconclusive. Potency is the fitted concentration of half-maximal effect. Random draw from the library, and some 4.6% of all compounds hit somewhere here.

SMILES	Cruzain inh noDet	2A StopGo	Marburg entry inh	RE007 growth inh	NS1 function inh	LASV entry inh	SARS PLP yeast	Cruzain Triton
CC1(C)NC(=O)N(CCCOc2ccc3c(c2)CCC3)C1=O	7.5%	-7.2%	15.9%	-23.0%	-21.3%	-3.9%	-4.8%	-0.5%
CCCCn1c(N)c(N(CC)C(=O)c2cccc(C)c2)c(=O)[nH]c1=O	.	-4.2%	16.0%[46.1 µM]	1.3%	-7.8%	?	3.1%	.
CCN(C(=O)CN1C(=O)S/C(=C\c2cccc(Cl)c2)C1=O)C1CCS(=O)(=O)C1 (stereo not drawn)	.	-12.0%	.	1.5%	3.7%	.	3.4%	.
COc1ccc(OC)c(NC(=O)CNC(=O)Cn2c(C)cc3ccccc3c2=O)c1	-7.1%	-24.3%	5.3%	0.8%	6.9%	-2.9%	-0.9%	-0.6%
O=C(N/N=C/c1cccnc1)NC12CC3CC(CC(C3)C1)C2	.	1.2%	-9.7%[46.1 µM]	-5.3%	0.6%	-2.0%	-0.3%	.
CCOc1ccccc1NC(=O)Cn1c(=O)n(-c2ccc(F)cc2)c(=O)c2sc3ccccc3c21	-1.1%	-7.2%	?	.	.	0.2%[46.1 µM]	.	-0.1%
CC1CCN(CCCNC(=O)c2nn(C)c3c2CS(=O)(=O)c2ccccc2-3)CC1	.	-7.9%	.	-12.4%	-9.5%	.	-3.0%	.
O=C(Nc1ccccc1Oc1ccccc1)C1CCCC1	-0.5%	-3.9%	-7.3%	.	-6.4%	4.8%	-1.9%	-3.8%
CCc1ccc(OCC(=O)NCC(c2ccc(Cl)cc2)N2CCOCC2)cc1 (stereo not drawn)	?	?	-18.8%[46.1 µM]	.	.	10.8%[46.1 µM]	.	-6.8%
Cc1ccc(NC(=O)N2CCC(C(N)=O)CC2)cc1	-0.9%	.	?	-5.5%	0.9%	?	0.3%	3.2%
Cc1cc(N2CCCCC2)nc(NCc2ccccc2)n1	-10.4%	31.6µM*	3.16µM*	-4.0%	-119.2%	?	-5.3%	1.9%
C=C1C(=O)O[C@H]2C1CC[C@@](C)(O)C13C=CC(C)(C21)C1(C3)C(=O)O[C@@H]2C3C(C)=CCC3[C@](C)(O)C[C@H](OC(C)=O)C21 (stereo partly drawn)	?	-24.4%	-44.7%	6.9%	-3.2%	?	0.9%	-5.1%
CCc1nc(NCc2ccccn2)c2oc3ccccc3c2n1	16.7%	15.8µM*	?	2.0%	-65.2%	-23.9%	-0.8%	6.5%
C=CCc1ccccc1OCCNCCCOC	-2.7%	-12.5%	?	4.7%	15.3%	-20.5%	7.6%	-2.9%
CCN(Cc1ccccc1)Cc1c(O)ccc2c(=O)c(-c3ccc(Cl)cc3Cl)coc12	-8.4%	-10.6%	0.5%[46.1 µM]	.	.	6.3%[46.1 µM]	.	0.2%
O=S(=O)(c1ccc2nc(-c3ccccc3)[nH]c2c1)N1CCN(c2ccc(Cl)cc2)CC1	-22.9%	?	?	-5.7%	14.0%	?	-7.4%	-2.6%
CCOCCCNC(=O)Cn1nc(Cc2ccncc2)c2ccccc2c1=O	.	-10.1%	3.3%[46.1 µM]	-10.1%	6.7%	25.9%[46.1 µM]	0.9%	.
O=C(NCc1ccc2c(c1)OCO2)C1CCCN1C(=O)Nc1cccc(Cl)c1 (stereo not drawn)	1.0%	9.6%	-4.1%	13.8%	-5.3%	4.2%	6.7%	1.8%
CC1CCN(C(=O)CSc2nc3cccnc3n2C)CC1	-8.8%	-1.0%	9.6%	16.6%	-3.0%	7.0%	5.1%	6.8%
Cc1ccc(-c2nc3ncccn3c2NC2CCCCC2)o1	9.4%	?	-10.5%	3.9%	-1.6%	-10.1%	-17.7%	-2.9%
COc1ccc(OC)c(NC(=O)CCN2CCCCCC2)c1	0.3%	70.9%[activator]	-14.8%	13.5%	-5.1%	-9.8%	-3.7%	-4.0%
CN1\C(=C/C=C/C=C/C=[N+](C)C)C(C)(C)c2ccccc21	.	15.8µM*	?	?	.	?	-9.0%	.
CCNC(=O)N1c2ccccc2Sc2ccccc21	.	-12.4%	7.4%	29.9%	3.5%	5.4%	0.0%	.
COc1ccc2nc(Nc3nc(C)c(CCC(C)C)c(=O)[nH]3)nc(C)c2c1	?	0.0%	?	-2.2%	20.6%	-17.2%	5.3%	-0.9%
O=C(CN1CCOCC1)N1CCN(c2ccc([N+](=O)[O-])cc2)CC1	.	-11.2%	6.0%[46.1 µM]	4.2%	0.3%	18.5%	1.0%	.
CCCNC(=O)C(=O)NCC1CCCN1CC (stereo not drawn)	.	-4.8%	-6.6%[46.1 µM]	-12.7%	.	.	-2.2%	.
Cc1ccc(-c2nc(CCNC(=O)c3ccco3)cs2)cc1	.	?	?	16.7%	.	7.8%	3.6%	.
O=C(Cn1c(-c2ccccc2)noc1=O)Nc1ccc(S(=O)(=O)N2CCOCC2)cc1	8.1%	-6.6%	-1.9%&8.6%	-17.2%	-5.1%	1.4%	?	1.7%
COc1ccc(/C=C/c2ccc(=O)n(Cc3ccccc3)n2)cc1	.	-21.8%	-28.6%[46.1 µM]	29.9%	.	5.01µM*	-1.3%	.
CCOC(=O)C1CCCN(c2ncnc3c2cnn3-c2ccc(OC)cc2)C1 (stereo not drawn)	?	-17.9%	-3.3%	0.0%	-56.4%	-7.7%	-6.2%	-3.4%
CCOC(=O)c1ccc(NC(=O)c2oc3c(c2C)-c2nn(Cc4ccccc4Cl)cc2CC3)cc1	13.6%	?	.	.	.	19.3%[46.1 µM]	.	-2.4%
CN1CCC(OC(=O)c2ccccc2)CC1	.	3.8%	.	4.9%	9.1%	.	0.9%	.
Cc1ccc(S(=O)(=O)NCC(=O)OCc2nnc(-c3ccccc3)o2)cc1	.	-10.7%	7.0%	0.2%	-20.6%	6.4%	-0.8%	.
N#Cc1nc(COc2ccccc2)oc1NCCN1CCOCC1	14.8%	25.4%	11.8%	16.1%	-5.3%	14.0%	-2.3%	0.2%
Cc1ccn2c(=O)cc(COc3ccc(NC(=O)C(C)(C)C)cc3)nc2c1	-0.7%	-18.1%	.	.	.	19.1%[46.1 µM]	.	0.2%
Cc1nn2c3ccccc3n(CCN3CCCCC3)c2nc1=O	-12.8%	4.8%	2.8%[46.1 µM]	-19.7%	8.5%	-2.2%	-9.4%	-1.7%
O=c1cc(-c2ccccc2)nc(/C=C/c2ccccc2)[nH]1	.	-4.9%	-17.1%[46.1 µM]	-9.9%	-3.4%	-2.0%	-0.4%	.
CC(C)[C@H](NC(=O)C1CCN(S(=O)(=O)c2ccc(F)cc2)CC1)C(=O)NCc1ccncc1	.	-0.2%	2.4%[46.1 µM]	2.3%	7.4%	14.0%[46.1 µM]	1.6%	.
Cn1c(Cn2cnc([N+](=O)[O-])n2)nnc1SCC(=O)Nc1ccc(Br)cc1	.	-4.2%	-21.0%[46.1 µM]	12.1%	.	22.3%	-5.5%	.
COC(=O)c1c(Cl)c2n3ccccc3c(C)c(-c3ccccc3)c-2c1C(=O)OC	28.9%	?	?	-29.5%	20.6%	-25.9%	10.8%	-8.4%
C=CCn1c(O)c(C(C)=Nc2ccc3c(c2)CCC3)c(=O)[nH]c1=O	.	-28.3%	14.1%[14.2 µM]	12.5%	-0.4%	-27.7%	0.0%	.
O=C(CN(Cc1cccs1)C(=O)c1csnn1)NC1CCCC1	11.8%	8.9%	-17.6%[46.1 µM]	22.3%	4.4%	-6.3%	?	0.4%
CCNc1nc(Oc2ccc(F)cc2)cc(C(F)(F)F)n1	.	-17.4%	?	10.7%	5.0%	21.8%	-0.5%	.
CCOc1ccc(NC(=O)C(=O)NCC2CCCN2CC)cc1 (stereo not drawn)	-2.4%	12.5%	21.5%	-23.2%	3.1%	2.7%	-1.9%	1.2%
O=C1NC(=O)N(c2ccc(F)cc2)C(=O)/C1=C/c1ccsc1	.	-15.9%	-9.8%[46.1 µM]	-2.9%	.	9.8%[46.1 µM]	0.9%	.
O=C(Nc1ccncc1)Nc1ccc(F)cc1	.	2.0%	-14.5%[46.1 µM]	-7.2%	7.8%	2.3%[46.1 µM]	1.2%	.
CC(=O)N1CCc2cc(S(=O)(=O)NCCCN3CCN(Cc4ccccc4)CC3)ccc21	-0.4%	0.7%	10.4%	3.7%	0.3%	1.0%	-2.8%	7.4%
Cc1ccc(-c2nnc(Nc3ccccc3)o2)cc1	-26.2%	.	1.64µM*	?	-46.0%	?	-6.2%	9.5%
O=C(CN1C(=O)c2ccccc2S1(=O)=O)NC1CC2CCC1C2 (stereo not drawn)	-21.2%	42.8%[activator]	.	0.0%	-1.2%	.	3.5%	3.4%
COc1ccc(S(=O)(=O)Nc2ccc3c(c2)COC3=O)cc1OC	1.1%	120.5%[activator]	-4.0%	6.6%[3.69 µM]	-8.1%	23.8%	1.2%	3.0%
CN(C)C(=S)NCc1ccccc1	1.3%	-10.5%	-21.0%	-24.4%	5.6%	8.6%	-2.6%	4.6%
COc1cccc(CNC(=O)c2ccc(CS(=O)(=O)Cc3ccccc3C)o2)c1	.	-17.0%	?	4.0%	-22.4%	?	?	.
CC(=O)N(Cc1ccccc1)Cc1cn(CCC#N)nc1-c1cccc([N+](=O)[O-])c1	.	-9.0%	-1.0%[46.1 µM]	-14.8%	0.8%	-2.0%[46.1 µM]	0.7%	.
COc1c2ccoc2nc2c(OC)c(OCC(O)C(C)(C)O)ccc12 (stereo not drawn)	-5.0%&-12.7%&-4.4%	11.6%&5.7%	?	3.7%	1.1%	6.9%	4.5%	-0.9%&2.9%&1.1%
O=C(CCCCCn1c(=O)[nH]c2ccccc2c1=O)N1CCN(c2cccc(C(F)(F)F)c2)CC1	?	-11.9%	.	.	.	?	.	-7.7%
Cc1cc(N2CC(C(=O)NCc3cccs3)CC2=O)ccc1C(C)C (stereo not drawn)	20.7%	-1.8%	0.1%[46.1 µM]	-3.5%	4.4%	8.5%	5.0%	3.2%
